Assay outcomes (PubChem)
VACV Venus inh: inhibitors of vaccinia virus (Venus reporter). actives 0.46% (n = 330,000). Potency, µM (series often up to 36.5 µM), for inactives: at the top dose activity change, negative = inhibition, actives largely listed as inhibitors. Vaccinia virus Venus reporter expression, fluorescence; active means well fitted inhibition curve with a large enough effect; inconclusive means small, poorly fitted or top-dose-only effect; inactive means no such curve, though single readings can be large or run the other way; tested in A549 cells; also: nearly all actives have a fitted effect of over 30% in size; inactives centre near -10
VACV mCherry inh: vaccinia inhibition (mCherry reporter) | Vaccinia virus mCherry reporter infection, fluorescence; about a quarter of the inactives have no number | Potency, µM (highest dose often 36.5 µM), inactives show top-dose activity change, negative = inhibition, most hits filed as inhibitors | actives 0.63% (n = 310,000); active = well fitted inhibition curve with a large enough effect; inconclusive = small, poorly fitted or top-dose-only effect; inactive = no such curve, though single readings can be large or run the other way; tested in A549 cells; also: nearly all actives have a fitted effect of over 35% in size; inactives centre near -10
An asterisk follows results filed as active; i = inactive; ? = inconclusive; · = no result given; [ ] = another dose, or the depositor's remark. % is scaled to controls: 0 for no effect and ±100 for the full control effect; potency is read from the fitted curve at half-maximal effect.

Second line of a record – VACV Venus inh, VACV mCherry inh
> CCCCC(=O)Nc1ccc(C(=O)Nc2ccc(S(=O)(=O)Nc3ccc(C)cc3)cc2)cc1
    -0.7%, -5.2%
> CCN(C(=O)c1c(-c2ccccc2Cl)noc1C)C1CCCCC1
    -6.5%, -10.4%
> Cc1ccc(-c2ccc(=O)n(Cc3cc(C)ccc3C)n2)cc1
    ?, ?
> O=C(COC(=O)c1ccccc1SCC(=O)N1CCCC1)Nc1ccc(OC(F)F)cc1
    -22.5%, i
> CCOC(=O)c1c(Nc2ccc(F)cc2)nnc(-c2ccccc2)c1-c1ccccc1
    -0.6%, 4.8%
> CCOC(=O)C1(Cc2cccc(F)c2)CCN(C2CCOCC2)CC1
    -0.3%, i
> CCN1CCN(CCC(=O)Nc2ccccc2)CC1
    2.6%, -21.9%
> CCN(Cc1nc(-c2ccc(OC)c(OC)c2)no1)S(=O)(=O)c1ccc(OC)cc1
    -7.3%, -5.0%
> COc1ccc(CC(=O)NNC2=Nc3cccc4cccc2c34)cc1
    -12.9%, ?
> COc1ccccc1NC(=O)c1nn(C)c2c1CS(=O)(=O)c1ccccc1-2
    -18.7%, -17.3%
> Cc1ccc(S(=O)(=O)N(C)C)cc1NC(=O)COC(=O)/C(=C/c1ccc(F)cc1)c1cccs1
    -28.9%, -21.1%
> Clc1ccc(-c2cn3nc4c(nc3n2)CCCC4)cc1
    -10.2%, ·
> CCCCSc1nc(C)c(CC(=O)OC)c(=O)[nH]1
    -16.5%, i
> CS(=O)(=O)N(CCc1ccccc1)CC(=O)N1CCN(c2ccc(F)cc2)CC1
    -18.5%, i
> COC(=O)c1cc2oc3ccccc3c2n1Cc1nc(-c2ccc(OC)cc2)oc1C
    -3.0%, -9.4%
> COc1ccccc1NS(=O)(=O)c1cccc(C(=O)N(C)Cc2cccs2)c1
    -13.4%, i
> O=C(CSc1nc2c(c(=O)[nH]1)CCC2)Nc1cccc(O)c1
    2.0%, -8.4%
> CN(CC(=O)Nc1ccccc1Cl)C(=O)COC(=O)c1ccc(Cl)nc1
    -10.1%, -17.1%
> Cc1ccc(-c2nnn(CC(=O)N(c3ccc4c(c3)OCCO4)C(C(=O)NCC3CCCO3)c3ccc(F)cc3)n2)o1 (configuration not stated)
    -15.0%, -12.9%
> c1ccc(-c2noc(C3CCCCC3)n2)nc1
    -9.0%, -17.2%
> CC(=C\c1ccccc1)/C=C1/SC(=S)N(C(C(=O)O)C(C)C)C1=O (configuration not stated)
    -10.0%, i
> CCc1ccccc1N(C(=O)CNC(=O)c1ccco1)C(C(=O)NC1CCCC1)c1cccnc1 (configuration not stated)
    -5.5%, -14.2%
> Cc1[nH]n(-c2ccccc2)c(=O)c1/C=N/c1nn[nH]n1
    -5.9%, 1.4%
> Cc1c(C(=O)N(CCO)C(C)C)cnn1-c1ncc2c(n1)-c1ccccc1CCC2
    -7.6%, -0.6%
> O=C(Nc1cccc(OCC(=O)N2CCOCC2)c1)c1ccc(C(F)(F)F)cc1
    -10.9%, 12.9%
> COc1cccc(C2CC(c3ccccc3Cl)n3ncnc3N2)c1 (configuration not stated)
    -18.1%, i
> CN1CCN(c2nc3nonc3nc2N2CCN(C)CC2)CC1
    -4.5%, i
> COc1cccc(C(O)c2nc(-c3ccccc3)cs2)c1 (configuration not stated)
    0.6%, -13.0%
> Cc1ccc(S(=O)(=O)N2CCOCC2)cc1NC(=O)COC(=O)COc1cccc2c1OC(C)(C)C2
    -1.3%, -0.9%
> CCOC(=O)N1CCN(C(=O)C2c3cc(OC)c(OC)cc3C(=O)N3CCc4ccccc4C23)CC1 (configuration not stated)
    -7.5%, i
> COc1ccc(S(=O)(=O)Nc2ccncc2)c(C)c1C
    0.3%, -4.7%
> CCCc1cc(=O)oc2cc(OCc3ccc(C(=O)O)cc3)ccc12
    -1.9%, -9.8%
> COc1ccc(CCNc2cc(N3CCN(C(=O)c4ccccc4OC)CC3)ccc2[N+](=O)[O-])cc1OC
    -23.1%, -6.6%
> COc1cc2c(cc1OC)[C@H]1C(=O)c3ccc4c(c3O[C@H]1CO2)C[C@@H](C(C)(C)O)O4
    -20.2%, ?
> CCc1cccc(NC(=O)CCc2nc(-c3cccs3)no2)c1
    -6.8%, i
> Cc1cccc(/C=N/NC(=O)c2cccc(Cl)c2)n1
    -16.7%, ?
> CN(C)C(=N)c1n[nH]nc1SCc1ccc(Cl)c(Cl)c1
    -0.2%, i
> O=C(NCC1CCCO1)c1cccc(S(=O)(=O)N2CCOCC2)c1 (configuration not stated)
    -10.5%, i
> COc1cc(NC(=S)NC(=O)c2ccco2)ccc1NC(=O)C(C)C
    -4.1%, -1.0%
> COCC(C)NS(=O)(=O)c1ccc(N2CCCCS2(=O)=O)cc1 (configuration not stated)
    -12.2%, -7.4%
> Cc1ccc(Cl)cc1Nc1nn2c(=O)c3ccc(C(=O)NC4CCCCC4)cc3nc2s1
    1.7%, -2.6%
> CCCCCC(=O)N1C[C@H](n2cc(C3CC3)nn2)[C@@H](O)C[C@@H]1c1ccc(C)cc1
    -14.7%, -0.3%
> O=C(O)c1cnn2c(C(F)F)cc(C(F)F)nc12
    1.5%, -11.9%
> CC(C)CC(NS(=O)(=O)c1ccc2c(c1)oc(=O)n2C)C(=O)NCc1ccccc1Cl (configuration not stated)
    -11.4%, -13.2%
> CCc1cc(CNC(=O)C2CCC(=O)N(CCc3cccc(F)c3)C2)on1 (configuration not stated)
    -7.3%, -13.7%
> COC(=O)c1ccc(NC(=O)CN(C)S(=O)(=O)c2ccc(Br)s2)cc1
    -1.9%, -17.3%
> COCCN1C(=O)C(=O)/C(=C(/O)c2ccc(S(=O)(=O)N3CCOCC3)cc2)C1c1cccc(OC)c1 (configuration not stated)
    -5.6%[7.34 µM], i[7.34 µM]
> Cc1ccc2nc(-c3ccccc3)cc(C(=O)N3CCN(S(=O)(=O)c4c(C)noc4C)CC3)c2c1
    -17.1%, 5.0%
> Cc1cc(C)n(CCOc2ccc(Cl)cc2Cl)n1
    -13.1%, -18.1%
> CC[C@H](C)[C@H](NC(=O)[C@H](CCCN=C(N)N)NC(=O)[C@H](CCCN=C(N)N)NC(=O)[C@H](CC(C)C)NC(=O)[C@H](Cc1ccccc1)NC(=O)CNC(=O)CNC(=O)[C@@H](N)Cc1ccc(O)cc1)C(=O)O
    -7.1%[3.33 µM], -14.6%[3.33 µM]
> COc1cc(C)c(Cl)c(C)c1S(=O)(=O)NCc1ccc2c(c1)OCO2
    -27.6%, ?
> CCn1c(CNC(=O)c2cccc(C)c2)nnc1SCC(=O)N1CCOCC1
    -5.2%, -5.5%
> CCOCCCN(C)C1CCN(C(=O)c2oc3ccccc3c2NC(=O)c2ccc([N+](=O)[O-])cc2)CC1
    -6.2%, i
> COc1ccc(OC)c(S(=O)(=O)N2C(C)CCCC2C)c1 (configuration not stated)
    -11.8%, -12.7%
> CC(=O)NCCCN(Cc1ccc(Cl)c(Cl)c1)c1ccc(Br)cn1
    -25.2%, -29.0%
> Cc1ccccc1NC(=S)NC(=O)c1cncc(Br)c1
    -11.3%, i
> COCOCCn1cc(CN2CCS(=O)(=O)N(Cc3ccc(-c4ccncc4)cc3)C(C)C2=O)nn1 (configuration not stated)
    -9.0%, -6.2%
> COCCn1c(=O)sc2ccccc2c1=O
    -2.7%, 4.4%
> COc1ccc(N2CCN(C(=O)COC(=O)CNC(=O)c3ccc(C)cc3)CC2)cc1
    -1.3%, -1.6%
> COc1ccc(NC(=S)NC(=O)/C=C/c2ccccc2)cc1
    -7.8%, -20.0%

COc1ccc2ccccc2c1CNC(=O)CC1C(=O)NCCN1CC(C)(C)C (configuration not stated)
- VACV Venus inh = 4.7%[7.34 µM]
- VACV mCherry inh = -11.8%[7.34 µM]

CCn1ncc(C(=O)Nc2cccc(Cl)c2)c1C
- VACV Venus inh = -3.1%
- VACV mCherry inh = -11.6%

C[C@H]1CN([C@@H](C)CO)C(=O)CCCn2nncc2CO[C@@H]1CN(C)Cc1ccc(Cl)c(Cl)c1
- VACV Venus inh = -17.3%
- VACV mCherry inh = -4.2%

COc1cccc(-c2noc(CCC(=O)Nc3cccnc3)n2)c1
- VACV Venus inh = -6.6%
- VACV mCherry inh = ·

COC(=O)C(CCC(=O)CN1C(=O)c2ccccc2C1=O)N1C(=O)c2ccccc2C1=O (configuration not stated)
- VACV Venus inh = -1.8%
- VACV mCherry inh = i

CCN(CC)Cc1ccc(NC(=O)c2sc3cc(Cl)ccc3c2Cl)cc1
- VACV Venus inh = ?
- VACV mCherry inh = ?

COc1ccc(OC(=O)c2nc(SCc3ccc(C)cc3)ncc2Cl)cc1
- VACV Venus inh = 1.5%
- VACV mCherry inh = 3.5%

Cn1cc(/C=C/c2nc3ccccc3c(=O)n2-c2cccc([N+](=O)[O-])c2)c2ccccc21
- VACV Venus inh = -1.1%
- VACV mCherry inh = -9.6%

CC(Oc1cccc(Cl)c1)c1ccnc2nc(/N=C/N(C)C)nn12 (configuration not stated)
- VACV Venus inh = -11.2%
- VACV mCherry inh = -10.0%

O=C(CN(Cc1ccccc1)C(=O)CCC(=O)Nc1ccccn1)NCCc1ccccc1
- VACV Venus inh = 0.0%
- VACV mCherry inh = 3.6%

CSCCC(NS(=O)(=O)c1ccccc1F)C(=O)NCC(c1ccco1)N(C)C (configuration not stated)
- VACV Venus inh = 2.3%
- VACV mCherry inh = i

CC1c2[nH]c3ccccc3c2C[C@H]2C(=O)N(CCCN(C)C)CC(=O)N12 (some centres not stated)
- VACV Venus inh = -11.4%
- VACV mCherry inh = -0.8%

COc1cc(/C=N/O)ccc1OCc1ccc([N+](=O)[O-])cc1
- VACV Venus inh = -10.4%
- VACV mCherry inh = -33.8%

Cc1cccc(OCC(=O)Nc2ccncc2)c1C
- VACV Venus inh = -20.6%
- VACV mCherry inh = -30.0%

COc1ccc(S(=O)(=O)N2CCCCCC2)cc1C(=O)Nc1ccc(C(=O)N(C)C)cc1
- VACV Venus inh = -7.8%
- VACV mCherry inh = -20.9%

Overlap with the part before: two entries, then new ones.
Cc1cccc(OCC(=O)Nc2ccncc2)c1C
- VACV Venus inh = -20.6%
- VACV mCherry inh = -30.0%

COc1ccc(S(=O)(=O)N2CCCCCC2)cc1C(=O)Nc1ccc(C(=O)N(C)C)cc1
- VACV Venus inh = -7.8%
- VACV mCherry inh = -20.9%

COC(=O)NC(=S)Nc1ccc(Oc2ccc(Cl)cc2)c(Cl)c1
- VACV Venus inh = -27.7%
- VACV mCherry inh = ?

CCc1ccc(N(CC(=O)NCc2ccc3c(c2)OCO3)C(=O)c2csnn2)cc1
- VACV Venus inh = -9.1%
- VACV mCherry inh = -8.2%

COC(=O)C(=NNc1c(C)n(C)n(-c2ccccc2)c1=O)C(=O)OC
- VACV Venus inh = -0.7%
- VACV mCherry inh = -16.6%

Cc1ccc(NC(=O)c2cnc(SCC(=O)Nc3cc(C)on3)n(C)c2=O)cc1
- VACV Venus inh = -4.6%
- VACV mCherry inh = -10.9%

Cc1ccc(S(=O)(=O)N(C)c2ccc(OC(C)C(=O)N3CCCC3)cc2)cc1C (configuration not stated)
- VACV Venus inh = -9.9%
- VACV mCherry inh = -2.4%

O=C(Cc1ccccc1)NCC1CCCO1 (configuration not stated)
- VACV Venus inh = -8.6%
- VACV mCherry inh = -13.4%

O=C(NCC1CCCO1)c1cccc(Br)c1 (configuration not stated)
- VACV Venus inh = -5.3%
- VACV mCherry inh = -13.9%

Cc1cc(NC(=O)Cn2cnc3c(nnn3-c3ccc(C)c(Cl)c3)c2=O)no1
- VACV Venus inh = 2.8%
- VACV mCherry inh = i

COC(=O)c1ccc(S(=O)(=O)N2CCN(CCO)CC2)n1C
- VACV Venus inh = -10.5%
- VACV mCherry inh = i

COc1cccc([C@@H]2Oc3ccc(OC)cc3C(=O)[C@H]2O)c1
- VACV Venus inh = ?
- VACV mCherry inh = ?

O=c1c(Cc2ccccc2)c(O)ccn1CCc1cnc[nH]1
- VACV Venus inh = -19.8%
- VACV mCherry inh = -2.2%

CN(C)C(CNC(=O)c1ccc2nccnc2c1)c1ccco1 (configuration not stated)
- VACV Venus inh = 3.8%
- VACV mCherry inh = i

Given with bars between the fields: part of the list above
Structure | VACV Venus inh | VACV mCherry inh
COc1cc(/C=N/O)ccc1OCc1ccc([N+](=O)[O-])cc1 | -10.4% | -33.8%
Cc1cccc(OCC(=O)Nc2ccncc2)c1C | -20.6% | -30.0%
COc1ccc(S(=O)(=O)N2CCCCCC2)cc1C(=O)Nc1ccc(C(=O)N(C)C)cc1 | -7.8% | -20.9%
COC(=O)NC(=S)Nc1ccc(Oc2ccc(Cl)cc2)c(Cl)c1 | -27.7% | ?
CCc1ccc(N(CC(=O)NCc2ccc3c(c2)OCO3)C(=O)c2csnn2)cc1 | -9.1% | -8.2%
COC(=O)C(=NNc1c(C)n(C)n(-c2ccccc2)c1=O)C(=O)OC | -0.7% | -16.6%
Cc1ccc(NC(=O)c2cnc(SCC(=O)Nc3cc(C)on3)n(C)c2=O)cc1 | -4.6% | -10.9%
Cc1ccc(S(=O)(=O)N(C)c2ccc(OC(C)C(=O)N3CCCC3)cc2)cc1C (configuration not stated) | -9.9% | -2.4%
O=C(Cc1ccccc1)NCC1CCCO1 (configuration not stated) | -8.6% | -13.4%
O=C(NCC1CCCO1)c1cccc(Br)c1 (configuration not stated) | -5.3% | -13.9%
Cc1cc(NC(=O)Cn2cnc3c(nnn3-c3ccc(C)c(Cl)c3)c2=O)no1 | 2.8% | i
COC(=O)c1ccc(S(=O)(=O)N2CCN(CCO)CC2)n1C | -10.5% | i
COc1cccc([C@@H]2Oc3ccc(OC)cc3C(=O)[C@H]2O)c1 | ? | ?
O=c1c(Cc2ccccc2)c(O)ccn1CCc1cnc[nH]1 | -19.8% | -2.2%
